High-throughput results as filed in PubChem.
MT1-MMP act inh = MT1-MMP (human) activation inhibition; GFP/RFP ratio change, % at 20 µM; HT1080 RFP-PRO-GFP cells, GFP/RFP ratio fluorescence, overnight; percent of plate control window, DMSO zero; P50281; actives 0.061% (n = 360,000);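 active = GFP/RFP ratio change of at least 30% with cell ATP level not reduced by more than half and red fluorescence within 50% of control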; note: strong numbers were not always called active
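Test system: HT1080 cells expressing an RFP-PRO-GFP fluorescent reporter construct / Compound dosing: single-point 20 µM compound, 1% DMSO / Schedule: cells overnight before dosing, compound overnight, 37 °C, 5% CO2 / Evaluation: GFP/RFP fluorescence ratio / Control set: DMSO and RFP-L50D-GFP cell wells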
Rce1 inhib = blocks yeast Ras-converting enzyme. Q03530. yeast membranes, quenched prenylated peptide cleavage fluorescence. calls only. actives 0.27% (n = 290,000);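 active = fall in fluorescence gain of 50% or more versus controls, with final raw signal at or below 3038400; inconclusive = same 50% fall but final raw signal above 3038400; inactive = fall in fluorescence gain under 50%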;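 note: plate controls were neutral control wells for no effect and wells lacking membranes for full effect; tested at 10 µM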
UUG fidelity = modulators of start codon recognition fidelity in yeast; S. cerevisiae UUG-firefly luciferase reporter, luminescence/redox ratio; actives 0.13% (n = 350,000); activity score, % at 18.7 µM;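 active = replicate mean at a twofold rise or more, about +100% in these data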;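 note: firefly luciferase made from a UUG start codon reports start codon fidelity; reporter light over untreated wells divided by growth signal over untreated wells; some hits fall short of that in this replicate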
PABP polyA inh = PABP-poly(A) binding inhibition. PABP-poly(A) RNA binding, fluorescence polarization. inhibition, % at 35 µM. actives 1% (n = 290,000). AID 2014. P11940;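 active = 50% or more with normal probe brightness, or confirmed in later tests; inconclusive = above 50% with abnormal brightness, or retests that disagree; inactive = below 50% or failed in later tests; about a fifth of its hits are not listed in these tables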;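 note: calls also rest on retests at 20 µM and on dose response follow-up; controls were probe without protein and protein plus probe with vehicle; some compounds called inactive have numbers as strong as hits; many hits fall short of the cut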
Target sequence (P11940 whole entry, looked up): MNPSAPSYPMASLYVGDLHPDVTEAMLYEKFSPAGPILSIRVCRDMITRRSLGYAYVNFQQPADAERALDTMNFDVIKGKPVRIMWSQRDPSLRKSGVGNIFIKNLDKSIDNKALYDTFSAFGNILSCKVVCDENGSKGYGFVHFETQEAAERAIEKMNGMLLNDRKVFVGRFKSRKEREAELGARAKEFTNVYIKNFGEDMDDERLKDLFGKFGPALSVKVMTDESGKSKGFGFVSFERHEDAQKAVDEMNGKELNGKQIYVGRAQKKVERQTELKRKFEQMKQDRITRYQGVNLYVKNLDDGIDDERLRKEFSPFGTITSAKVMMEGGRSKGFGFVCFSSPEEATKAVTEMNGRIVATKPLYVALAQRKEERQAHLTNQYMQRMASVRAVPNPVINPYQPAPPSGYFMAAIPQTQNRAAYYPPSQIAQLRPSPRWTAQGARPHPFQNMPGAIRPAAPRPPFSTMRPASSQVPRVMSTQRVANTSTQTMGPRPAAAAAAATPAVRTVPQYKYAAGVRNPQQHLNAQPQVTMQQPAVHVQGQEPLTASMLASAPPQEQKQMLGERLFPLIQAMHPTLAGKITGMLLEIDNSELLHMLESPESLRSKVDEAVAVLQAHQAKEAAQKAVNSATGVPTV
eIF4H inh = inhibitors of RNA binding by human eIF4H; Q15056; eIF4H fluorescence polarization binding assay; inhibition, % at 35 µM; actives 0.94% (n = 290,000); AID 2012;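 active = 50% or more with normal probe brightness, or confirmed in later tests; inconclusive = above 50% with abnormal brightness, or retests that disagree; inactive = below 50% or failed in later tests; about a fifth of its hits are not listed in these tables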;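 note: calls also rest on retests at 20 µM and on dose response follow-up; 0% = protein and probe with vehicle and 100% = probe without protein; strong numbers were not always called active; many hits fall short of the cut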
CSC inhib = cancer stem cell inhibition. cancer stem cell-like cells viability, luminescence. inhibition, % at 7.5 µM. actives 1.1% (n = 300,000);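 active = mean at 75% or more and at least half the replicates too; inconclusive = mean and replicates disagree; tested in HMLE shEcad cells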;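 note: 0% = median of negative and 100% = median of positive control wells; the first replicate is given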
HIV Env fusion = inhibitors of HIV Env-mediated cell fusion | actives 1.1% (n = 360,000) | inhibition, % at 12.3 µM | HeLa-JRFL Env/CEM21 cell fusion, luciferase | AID 651610;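 active = mean replicate inhibition score of at least 50 and every replicate individually at or above 50; inconclusive = only one of the two criteria met; inactive = mean below 50 and not all replicates reaching 50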;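 note: 0% = plate neutral controls and 100% = maraviroc near 300 nM; one replicate is shown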
MT1-MMP act inh RFP = second read-out of MT1-MMP act inh, no call of its own (marks repeat the call); RFP signal change, %; measured here: RFP expression control read;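 0 = vehicle wells; hits needed this value within 50% of zero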
Starred values were filed as active, the others as inactive; i = inactive; u = inconclusive; x = no result given.

Results follow in this order: MT1-MMP act inh	MT1-MMP act inh RFP	Rce1 inhib	UUG fidelity	PABP polyA inh	eIF4H inh	CSC inhib	HIV Env fusion
CC1CCN(S(=O)(=O)c2ccc3c(c2)N(CC(=O)NCCN2C(C)CCCC2C)C(=O)CS3)CC1 (stereo not drawn)
→ -3.3	1.7	i	-13.2	x	x	-12.2	-3.2
COC(=O)C1=C(C)NC(C)=C(C(=O)OC)C1c1cc2cc(C)ccc2[nH]c1=O
→ 1.8	-2.4	i	-6.0	31.8	-8.9	-9.3	-78.9
OCC(O)C1OC(Nc2ccc(Cl)cc2)C(O)C1O (stereo not drawn)
→ 0.3	5.4	i	x	2.4	-3.8	8.0	-4.7
O=c1c(Cl)c(N2CCCCC2)cnn1-c1nc2ccccc2[nH]1
→ 8.1	-3.2	i	-87.2	0.9	-3.2	12.2	-38.9
COc1ccc(NS(=O)(=O)c2cccc(NC(=O)CCC(=O)c3cccs3)c2)cc1
→ 2.4	-4.0	i	x	6.8	6.0	x	x
CC(CCc1ccccc1)NS(=O)(=O)c1ccccc1F (stereo not drawn)
→ -3.3	-3.6	i	5.7	3.9	1.9	-11.8	-2.0
O=S(=O)(c1ccc2ccccc2c1)N1CCN(S(=O)(=O)c2c(F)cccc2F)CC1
→ -2.1	1.4	x	-2.5	x	x	x	-115.0
O=C(CCC(=O)c1cccs1)NCC(=O)Nc1ccc(F)c(F)c1F
→ -3.1	-6.0	i	x	-4.2	-10.6	-1.6	11.4
CCOC(=O)C1=C(C)N=c2sc(=C(C)C)c(=O)n2C1c1ccc(N(C)C)cc1 (stereo not drawn)
→ -8.9	-4.1	i	-7.8	x	x	18.9	x
CC(=O)Nc1ccc(Nc2cc(C)nc3c(-c4ccc(Cl)cc4)cnn23)cc1
→ 0.7	-6.4	i	x	-4.9	3.8	x	-49.5
CC(C)Oc1cc(NC(=O)CS(=O)CC(=O)N(C)C)c(Cl)cc1Cl (stereo not drawn)
→ 0.6	1.2	i	x	-9.6	1.4	-9.9	-23.4
COc1ccc(C(C#N)N2CCOCC2)cc1 (stereo not drawn)
→ 2.5	5.5	i	-0.4	-0.9	-12.3	x	x
COC(=O)c1nn2c(C(F)(F)F)cc(-c3ccc(Br)o3)nc2c1Br
→ -3.6	9.2	i	-2.2	48.1	-1.5	x	-34.3
CCOC(=O)c1[nH]c2ccccc2c1N=CN(C)C
→ 1.4	6.7	i	x	x	x	5.7	x
CCCNc1cc(C)oc(=O)c1C(=O)CC
→ 0.1	4.8	i	x	-12.1	-10.0	-2.5	0.3
COc1ccccc1-c1cc(C(=O)Nc2cc(C)on2)no1
→ 5.8	2.5	i	-5.7	2.7	1.8	27.9	x
CCOc1ccc(/C=N/NC(=O)c2nnn(-c3nonc3N)c2CN(C)C2CCCCC2)cc1
→ 1.3	0.3	i	-11.6	4.8	-0.2	-3.5	-3.1
Cc1nn(C)c(C(=O)NC2C3CC4CC(C3)CC2C4)c1Cl (stereo not drawn)
→ 2.7	-2.9	i	x	2.9	-10.1	44.5	-43.9
O=C(CSc1ccc2nnc(-c3ccccn3)n2n1)Nc1cccc(F)c1
→ 3.7	3.0	i	-21.7	-0.7	-4.5	-8.3	2.6
CNC(=O)COc1coc(CN2CCN(c3ccccc3F)CC2)cc1=O
→ 1.8	4.0	i	-14.0	-6.0	1.3	-5.5	-3.5
O=C(O)/C=C/C(=O)Nc1ccc(SC(F)(F)F)cc1
→ 0.4	4.3	i	-24.9	-1.5	0.2	7.2	-4.1
COc1ccc(NC(=O)C2CC(=O)N(CCc3ccc(F)cc3)C2)c(OC)c1 (stereo not drawn)
→ -0.7	1.0	i	2.9	2.9	12.5	-6.1	3.6
O=C(c1c(F)cccc1Cl)N1CCN(c2ccccn2)CC1
→ -1.9	-0.7	i	-4.5	-12.5	7.3	-1.4	1.3
S=c1nc(-c2cc(Cl)cc(Cl)c2)[nH][nH]1
→ -0.9	-6.8	i	x	4.8	6.3	x	9.4
Cc1noc(C)c1C(=O)NC(Cc1c[nH]c2ccccc12)C(=O)O (stereo not drawn)
→ -2.1	2.0	x	-16.7	x	x	-9.8	-2.3
O=C(N/N=C/c1ccccc1OC(F)F)NC1CCCCC1
→ 0.5	-4.7	i	-7.8	-2.2	-5.2	7.0	-4.9
Cc1ccc(NC(=O)c2ncn(CC(=O)NCC(C)c3ccccc3)n2)cc1C (stereo not drawn)
→ -0.7	-0.9	x	-7.4	x	x	x	-24.3
COc1ccc(C(C#N)C2(C)OCCO2)cc1OC (stereo not drawn)
→ 1.7	2.3	i	x	-13.8	2.8	-7.1	x
Cn1c(OCc2ccco2)nc2c1c(=O)n(Cc1ccc(Cl)c(Cl)c1)c(=O)n2C
→ -5.3	-2.2	i	-2.4	4.9	0.2	-6.9	x
CCn1c2ccccc2c2nc3cc(OC)c(OC)cc3nc21
→ -4.8	-24.6	i	9.4	5.6	-4.8	9.1	-60.8
CCOc1ccc2c(=O)c(Oc3ccccc3)c(C)oc2c1
→ 4.1	-2.0	i	x	2.3	-7.3	11.6	x
Cc1ccc(CNC(=O)CNS(=O)(=O)c2ccc3c(c2)C(C)(C)C(=O)N3C)cc1
→ -1.3	2.6	i	12.3	-2.1	-4.0	-7.3	-20.5
CCOc1ccc(C(C(=O)NCCOC)N(CCOC)C(=O)CCC(=O)Nc2ccccn2)cc1 (stereo not drawn)
→ 3.2	5.0	i	-1.3	4.5	-2.9	x	4.1
O=C(CCN1C(=O)C2C3C=CC(C3)C2C1=O)N1CCN(c2ccccc2Cl)CC1 (stereo not drawn)
→ 3.6	3.3	i	0.2	-7.9	-7.9	-5.6	x
CCOC(=O)N1CCC(NC(=O)c2ccc3c(c2)N=C(C)c2c(C)ccc(C)c2S3)CC1
→ 9.7	-7.4	i	-13.4	2.2	-6.6	54.0	-227.8
O=C(O)c1ccc(Cl)c(N2C(=O)Nc3ccccc3N2O)c1
→ -1.4	5.1	i	x	-0.4	10.6	-3.0	5.5
Cc1cccc(NS(=O)(=O)c2cc(C(=O)OC(C)C(=O)NCc3ccc4c(c3)OCO4)ccc2C)c1 (stereo not drawn)
→ -3.1	-11.4	i	-2.0	4.7	-11.9	23.9	43.0
Cc1ccccc1C(=O)NC(C)c1ccc2c(c1)CCCC2 (stereo not drawn)
→ -2.5	-3.9	i	-11.5	-8.9	-0.5	7.6	x
O=C1C(Cl)=C(Nc2ccccc2O)C(=O)N1c1ccccc1
→ -10.7	0.4	x	-15.8	5.5	-8.5	3.3	6.3
COc1ccc2oc(C(=O)N(C)CCOc3ccccc3)c(C)c2c1
→ 0.6	3.6	i	-5.0	23.3	-12.7	-5.5	-20.6
CCOc1ccc2nc(CN3CCN(Cc4ccsc4)C(CCO)C3)ccc2c1 (stereo not drawn)
→ 7.2	1.8	i	2.4	-1.5	-3.3	-3.7	-0.8
O=C(Nc1ccc(O)cc1)c1c(O)c2c([nH]c1=O)CCCC2
→ -6.1	-6.7	i	x	-2.8	4.2	x	-268.1
COc1ccc(NC(=O)CSc2nc3ccccc3c(=O)n2CCCO)cn1
→ 2.0	1.3	x	-22.9	x	x	5.9	x
CC1=C(C(N)=O)C(c2cccc(OCc3ccccc3)c2)n2nnnc2N1 (stereo not drawn)
→ 1.1	-2.8	i	-28.6	-0.8	-1.7	-6.4	x
O=C(CNC(=O)c1ccc(Cl)cc1)N/N=C/C=C/c1ccccc1
→ 1.0	0.9	i	x	1.1	-1.6	-16.2	9.4
COc1ccc(CN2CCNC(=O)C2CC(=O)NC2CCC2)c(OC)c1 (stereo not drawn)
→ -1.9	0.1	i	-19.3	8.7	-2.7	-8.7	-19.4
COc1ccc(OCC(=O)N/N=C\c2ccco2)cc1
→ 0.8	0.1	i	x	11.6	0.7	-12.3	-1.2
Cc1cc(C)nc(N(C#N)CN2C(=O)c3ccccc3C2=O)n1
→ 5.6	0.4	i	11.8	-4.5	5.5	-6.9	x
CC1(C(=O)NS(=O)(=O)c2cccc(OC(F)F)c2)CCN1C(=O)C1CCCCC1 (stereo not drawn)
→ -8.1	4.6	x	8.7	x	x	x	-31.8
Clc1ccc(CCNc2nc3ccccc3s2)cc1
→ -3.5	-3.5	i	-17.6	-5.3	-2.3	x	-90.4
Cc1ccccc1S(=O)(=O)Cc1ccc(C(=O)NCCc2ccccc2)o1
→ -0.8	-1.7	i	x	0.3	-4.0	-10.5	-41.8
COc1ccc(-c2cc(C(=O)OCC(=O)N3CCOCC3)c3ccccc3n2)cc1
→ -4.6	-4.3	x	-17.9	x	x	12.8	-25.6
CC(=O)Nc1ccc(S(=O)(=O)Nc2ccc(N3CCCCC3)cc2)cc1
→ -3.8	-9.0	x	-8.3	x	x	21.5	68.2*
O=C(c1sc2ccccc2c1Cl)N(Cc1ccccc1Cl)C1CCS(=O)(=O)C1 (stereo not drawn)
→ -7.2	-10.7	i	0.4	-0.6	-6.4	-2.6	28.2
COc1ccc(-c2onc3ccc(C(C)=O)cc23)cc1
→ -61.6	2.1	i	x	u	u	-2.5	16.1
Cc1cccc(Nc2nccc(N(C)C)c2C#N)c1
→ 0.7	3.6	i	1.0	-1.4	9.4	-3.9	-6.6
Cc1cccc(-n2ncc3c(N)ncnc32)c1
→ -0.4	2.1	i	-1.0	2.7	1.7	-9.0	-266.7
CCOc1ccc(CCNC(=O)CCc2nc(-c3ccc(OC)cc3)no2)cc1OCC
→ 2.2	-5.1	i	-14.8	-6.2	0.9	-0.4	x
CCCNC(=O)c1cc(C2CCCN(C(=O)c3cc(F)ccc3C)C2)on1 (stereo not drawn)
→ -1.4	-4.4	x	-0.1	x	x	x	20.2
Cc1nc(C(F)(F)F)ccc1C(=O)N1CCC1(C)C(=O)NS(=O)(=O)c1ccc(C(C)(C)C)cc1 (stereo not drawn)
→ -4.3	0.7	x	-19.5	x	x	x	-17.2

New compounds follow
Results follow in this order: MT1-MMP act inh	MT1-MMP act inh RFP	Rce1 inhib	UUG fidelity	PABP polyA inh	eIF4H inh	CSC inhib	HIV Env fusion
COc1ccc(/C=C/C(=O)NC2CCCCCC2)cc1S(=O)(=O)N1CCOCC1
→ -4.2	-0.7	i	x	2.4	9.1	23.6	x
COC(=O)c1cc(C#N)c(OC)nc1C
→ -1.6	3.4	i	x	6.0	-12.7	-11.3	-14.6
CCOC(=O)C1CCN(CCC(=O)Nc2cccc(C)c2)CC1
→ 1.4	2.2	i	x	6.8	-1.6	-10.2	-1.7
Cc1ccc(CCNC(=O)c2nnn(-c3cccc(C)c3)c2N)cc1
→ -0.9	-3.6	i	2.9	8.5	-1.5	4.5	2.0
COc1ccc(-c2csc(NCCc3nc4cc(Cl)c(N5CCCCC5)cc4n3CCOCCO)n2)cc1
→ 0.1	-2.7	i	-1.4	x	x	51.5	38.3
NC(=O)COC(=O)c1cc([N+](=O)[O-])ccc1NCCO
→ -5.4	3.1	x	-23.3	10.1	-14.8	5.6	16.9
NC(=S)N/N=C/c1ccc(-n2nncc2-c2ccc(Cl)cc2)cc1
→ -3.8	-6.9	i	-37.4	0.3	-2.7	-6.9	x
COc1ccc(-n2nc(C(=O)N3CCCCC3)c(C)c(C#N)c2=O)cc1
→ 3.2	1.8	i	x	5.5	3.4	0.9	9.0
O=C1CC(c2ccco2)CC(O)=C1C=NCCN1CCNCC1 (stereo not drawn)
→ 0.6	7.0	i	-6.3	62.1*	95.3*	-13.5	-32.0
COc1ccc(Cn2c(=S)[nH]c3ccsc3c2=O)cc1
→ 1.5	4.5	i	x	-8.0	-5.6	4.2	-40.5
O=C(NCc1ccccc1F)C1CC(=O)N(Cc2ccco2)C1 (stereo not drawn)
→ 2.2	4.1	x	-10.0	x	x	x	-16.9
